Screening data from PubChem BioAssay.
HCMV NEC inh = inhibitors of HCMV UL50-UL53 interaction, biochemical, HTRF; HCMV UL50-UL53 nuclear egress complex (human cytomegalovirus); normalized percent inhibition; inhibition, % (no concentration beside the values); hit rate 0.15% among 190,000; AID 1918969, 2023;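 active = both replicates at 50% or more, plus weaker picks with an unusually low signal ratio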;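 also: stock transfer was 100 nL into about 20 µL; 0% = negative control wells and 100% = wells with untagged competitor protein; inactives centre near -12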
Sa growth inh = S. aureus growth inhibition at 42 and 30 °C, primary screen, LtaS inhibitor project, RN4220, two temperatures | relative growth, % (concentration not given with the values) | AID 720641, 2013 | OD600, 20 h, 42 °C; stronger effect = lower value | hit rate 0.53% among 170,000;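 active = growth at 42 °C up to 50% and 20 or more points under that at 30 °C, or under 10% at both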;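 also: 300 nL library stock went into each well; scaled to the means of positive and negative controls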
GIV-Gai inh = inhibitors of GIV peptide binding to Galpha-i3, primary screen, biochemical, fluorescence polarization, FITC-GIV GBA peptide, rat Galphai3. hit rate 0.42% among 210,000. 90 min; stronger effect = lower value; scaled: aluminum fluoride 0%, vehicle 100%. Guanine nucleotide-binding protein G(i) subunit alpha-3 (Rattus norvegicus), P08753. AID 1224905, 2016. percent of control (FP), % (no concentration beside the values);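 active = replicate mean at 85% of control or lower, very high polarization wells dropped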;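 also: wells of about 15 µL received 100 nL stock; the first replicate is given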
Target sequence (P08753 whole entry, looked up): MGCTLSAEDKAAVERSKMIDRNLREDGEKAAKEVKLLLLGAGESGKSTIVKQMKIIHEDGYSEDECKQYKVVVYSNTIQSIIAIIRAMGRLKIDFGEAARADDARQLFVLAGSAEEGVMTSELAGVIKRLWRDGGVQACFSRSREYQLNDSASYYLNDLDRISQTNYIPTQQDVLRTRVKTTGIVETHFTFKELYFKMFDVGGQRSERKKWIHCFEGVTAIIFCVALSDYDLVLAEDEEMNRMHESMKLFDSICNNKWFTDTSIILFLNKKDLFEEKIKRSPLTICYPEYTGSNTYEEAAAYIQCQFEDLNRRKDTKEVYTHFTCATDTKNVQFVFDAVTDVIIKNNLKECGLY
Sa growth inh second temp = second read-out of Sa growth inh, no call of its own (marks repeat the call); relative growth, %; measured here: growth at 30 °C;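 optical density after 20 h as mean of two plates; 100% = untreated growth and lower means inhibition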
* hit, by the source's call; / = not tested or not shown; & = joins results of further samples.

#	structure	HCMV NEC inh	Sa growth inh	Sa growth inh second temp	GIV-Gai inh
1	O=S(=O)(c1cc(F)ccc1F)N1CC(OCc2ccc(F)cc2Cl)C1	4	/	/	93
2	COc1ccc(NC(=O)c2c(NCc3cccc(OC)c3)sc3c2CCC3)cc1	/	99	59	114
3	Cc1ccc(Nc2nc3nonc3nc2NC(C)(C)C)cc1C	-32	/	/	98
4	CC(C)N=Cc1cc2n(c1O)-c1ccccc1C2=O	-120	58	55	-20*
5	CC(C)(C)OC(=O)N1CCCN(C(=O)Nc2ccccc2)CC1	-18	86	83	106
6	COCCCNC(=O)C1=C(C)C(=O)OC12CCCCC2	14	/	/	102
7	CC(C)(C)n1nc2c(c1NC(=O)/C=C/c1ccccc1)CSC2	/	72	77	101
8	Cc1ccccc1NC(=O)CSc1cn(CC(=O)N(C(C)C)C(C)C)c2ccccc12	/	103	87	107
9	Cc1cc(C)cc(NS(=O)(=O)c2c(C)nc3sc4ccccc4n3c2=O)c1	-37	/	/	102
10	Cc1ccc(-c2ccc(N)cc2)cc1	-4	101	105	/
11	Cc1cc(C(F)(F)F)nn1CC(=O)Nc1ccc2c(c1)OCO2	-11	96	97	97
12	Cc1ccc(N2CCN(c3cc(C)nc4c(-c5ccc(Cl)cc5)c(C)nn34)CC2C)cc1 (stereo unspecified)	/	102	89	99
13	COC(=O)CCC(=O)c1oc2ccc(Cl)cc2c1N	-28	/	/	98
14	CCn1c(-c2ccccc2)cs/c1=N/NC(=O)c1ccncc1	15	108	97	102
15	S=c1[nH]nc(-c2ccncc2)n1Cc1ccccc1	-17&0	105&103	84&53	106&100
16	CC(C)(Oc1ccc(Cl)cc1)C(=O)OCCN1CCCC1=O	16	85	101	/
17	CCC(CC)C(=O)Nc1ccccc1SCc1cc(=O)n2cc(Cl)ccc2n1	-58	/	/	111
18	Cc1ccccc1Nc1c(-c2ccco2)nc2c(C)cccn12	-14	83	75	108
19	COc1ccc(N(CC(=O)Nc2ccc(C(C)C)cc2)S(=O)(=O)c2ccc(OC)c(OC)c2)cc1	2	/	/	104
20	CC(=O)N1CC(C(=O)Nc2cccc3ncccc23)Oc2ccccc21 (stereo unspecified)	-28	66	89	/
21	CC(=O)OCC(=O)[C@@]1(O)CCC2C3CCC4CC(=O)CCC4(C)C3CCC21C (stereo partly specified)	2	78	98	/
22	O=C(Cn1cc(SCc2c(F)cccc2Cl)c2ccccc21)N1CCCCCC1	/	126	92	106
23	O=C(O)C1C2C=CC(C2)C1C(=O)NCc1ccc2c(c1)OCO2 (stereo unspecified)	/	95	91	99
24	O=C(CCCOc1ccc(Cl)cc1)N1CCCCCC1	-4	95	87	/
25	NC1=NC(=Nc2ccccc2)c2ccccc21	-52	75	91	/
26	CCC(=O)Nc1nc2ccc(NC(=O)C3CC3)cc2s1	-28	/	/	100
27	COC(=O)c1c(-c2cccs2)csc1NC(=O)c1cc(OC)cc(OC)c1	-14	111	85	105
28	COCCNC(=O)CN1c2ccc(Br)cc2-c2ccccc2S1(=O)=O	10	/	/	105
29	COC(=O)c1ccc(CN(Cc2ccc(OC)c(OC)c2)S(=O)(=O)c2ccc(F)c(C(=O)Nc3cc(C)ccc3C)c2)cc1	/	119	100	103
30	CCOC(=O)N1CCC(NC(=O)c2nn(-c3ccc(C)cc3)c(=O)c3c2c2ccccc2n3C)CC1	/	92	86	101
31	COc1ccc(OC)c(NC(=O)C2CCCN2S(=O)(=O)c2cc3c(cc2Cl)NC(=O)CO3)c1 (stereo unspecified)	-24	/	/	103
32	COC(=O)C1C2C=CC3(CN(C(c4ccccc4)c4ccccc4)C(=O)C13)O2 (stereo unspecified)	4	92	103	/
33	O=C(N[C@@H](Cc1ccccc1)C(=O)NCc1cccs1)c1cccs1	-15	96	93	/
34	CCCC(C)C(=O)NCc1ccccc1 (stereo unspecified)	-9	112	76	97
35	CNC(=O)N1CCCC(c2cccc(C(=O)N(C)Cc3ccccc3)c2)C1 (stereo unspecified)	-14	/	/	110
36	CCOC(=O)c1ccc(NC(=O)CSc2nnc(CNC(=O)c3ccco3)n2-c2ccc(F)cc2)cc1	-24	115	97	102
37	O=C(Nc1ccc2[nH]c(=O)[nH]c2c1)c1cc(-c2ccco2)nc2ccccc12	-17	107	86	/
38	COc1ccc(C(=O)NCCN2CCCC2)cc1OC	-22	102	88	102
39	COc1ccc2nc3c(nc2c1)CCCC3	-35	88	91	105
40	CCOC(=O)c1c(C)[nH]c(CCC(=O)NCc2ccccc2C)c1C	/	104	90	104
41	CCCOc1ccc(C(C)(O)CN2CCOCC2)cc1 (stereo unspecified)	-8	96	93	100
42	CCOC(=O)c1cc(-c2ccc(F)cc2)n(CC(=O)NCc2cccs2)c1C	16	101	103	102
43	CC(C)NC(=O)N1CCCC(c2cccc(C(=O)N3CCCN(C)CC3)c2)C1 (stereo unspecified)	-24	/	/	110
44	Cc1ccc(C(=O)NCC(O)c2ccccc2)cc1 (stereo unspecified)	-21	93	79	101
45	CCOC(=O)N1CCC(NC(=O)CNC(=O)c2ccco2)CC1	-23	108	83	102
46	Cc1ccc(NC(=O)C2CCCN(c3ncnc4c3nc3n4CCCCC3)C2)c(Br)c1 (stereo unspecified)	/	141	90	105
47	Cc1ccc(-n2nc3c(c2NC(=O)c2ccc(S(=O)(=O)N4CCOCC4)cc2)CSC3)c(C)c1	90*	/	/	109
48	CCN(C(=O)Cc1c(C(=O)O)n(CC)c2ccccc12)c1cccc(C(F)(F)F)c1	-14	/	/	96
49	Cc1c(S(=O)(=O)c2ccc(Cl)cc2)csc1C(=O)NCc1ccco1	-11	130	89	105
50	COc1ccc(CCNC(=O)CCCCn2c(=O)c3ccccc3n(Cc3cc(C)ccc3C)c2=O)cc1OC	-3	109	86	98
51	N#Cc1c(-c2ccccc2)cc(C2CC2)nc1N	31	104	105	104
52	Nc1nc(SCC(=O)N2CCCC2)[nH]c(=O)c1-c1ccccc1	-11	105	97	/
53	CCOCCCNC(=O)c1ccc(-n2c(-c3ccccc3)cc3c2CCCC3)cc1	2	98	78	102
54	O=C(Cc1ccc(Cl)cc1)N1CCN(c2ccc(F)cc2)CC1	/	121	73	106
55	COc1cccc(-c2cc(C(F)(F)F)nc(SC3CC(=O)C4OCC3O4)n2)c1 (stereo unspecified)	-10	59	39	/
56	COc1ccc(C2C(C(C)=O)=C(C)N=c3s/c(=C\c4cc(C)n(-c5ccccc5)c4C)c(=O)n32)c(OC)c1 (stereo unspecified)	-21	/	/	142
57	CCOC(=O)C1CCN(S(=O)(=O)C(F)(F)c2nc3ccccc3s2)CC1	-7	94	104	/
58	Cc1ccccc1CNC(=O)c1ccc2nc(C(C)C)oc2c1	/	102	90	103
59	Fc1ccc(Oc2ccc3nnc(-c4ccccc4)n3n2)cc1	-5	112	104	102
60	COc1ccc2c3c1OC1CC(O)C=C[C@@]31CCN(C)C2 (stereo partly specified)	-32&-67	101	89	107

The results go on:
#	structure	HCMV NEC inh	Sa growth inh	Sa growth inh second temp	GIV-Gai inh
61	COC(=O)c1cc(C)nc2c1c(=O)nc(SCc1ccccc1Cl)n2C1CC1	/	72	74	98
62	COc1ccc(C2=N/C(=C\c3ccco3)C(=O)O2)cc1	/	97	89	100
63	O=C(Cn1c(=O)oc2ccccc21)NC12CC3CC(CC(C3)C1)C2	-15	102	103	102
64	CCO/C=C1\SC(=S)N(Cc2ccccc2)C1=O	-52	119	53	187
65	CCc1ccc(NC(=S)NC(=O)/C=C/c2ccco2)cc1	10	111	35	172
66	CCOC(=O)c1cc(-c2ccc(OC)c(S(=O)(=O)NCc3ccccc3Cl)c2)on1	/	95	92	102
67	Cc1ccc2[nH]cc(CCN3CC(C(=O)N4CCN(c5ccccc5)CC4)CC3=O)c2c1 (stereo unspecified)	-19	/	/	103
68	COC(=O)c1cc(S(=O)(=O)N2CCCC2C(=O)NC(C)(C)C)cn1C (stereo unspecified)	-3	/	/	104
69	COc1ccc(CCNC(=O)CCCc2nnc3n(C)c(=O)c4sccc4n23)cc1OC	-8	114	85	99
70	CC(C)NC(=O)CCc1nc2sc3c(c2c(=O)[nH]1)CCCCC3	-12	/	/	104
71	O=C(O)c1ccc2c3c(cccc13)C(=O)N(c1ccccc1O)C2=O	-71	98	81	161
72	O=S(=O)(NCc1csc2ccc(Cl)cc12)c1cc(S(=O)(=O)c2ccccc2)cs1	-21	98	86	100
73	COc1ccc(NS(=O)(=O)c2ccc(Cl)cc2)c(OC)n1	2	87	100	100
74	CCCOc1ccc(NC(=O)CC2C(=O)N(c3ccccc3)C(=O)N2CCC(C)C)cc1 (stereo unspecified)	/	92	90	104
75	COc1ccc(NS(=O)(=O)c2cc3c(cc2C)NC(=O)CO3)cc1	-4&-18	108	91	99&106
76	CCOc1cc(/C=C2\SC(=S)N(NC(=O)c3ccc(Br)cc3)C2=O)ccc1O	-12	/	/	102
77	Cc1c(Cl)cccc1NC(=O)CN1C(=O)CCn2nc(-c3cccn3C)cc21	/	106	92	110
78	O=C(c1cc(-c2ccccc2)on1)N1CCCC1	5	105	103	/
79	O=C(COc1ccc(-c2nc(-c3ccccc3)no2)cc1)Nc1ccc(F)cc1	-30	/	/	105
80	CN(C(=O)c1cc(-c2ccc(F)cc2)on1)c1ccccc1	-10	82	90	101
81	Cc1ccc(NC(=O)c2cc3c(-c4ccccc4)nn(-c4ccccc4)c3s2)cc1	-27	80	87	106
82	CCCn1c(=O)c2ccccc2n2c(=O)n(CC(=O)NCc3ccc(C)cc3)nc12	-11	/	/	104
83	Cc1cc(=O)[nH]c(Nc2ccc(N3CCCCC3)cc2)n1	-15	/	/	102
84	Nc1nc2ccc(Cl)cc2n2c(-c3ccccc3)nnc12	-22	/	/	92
85	CC(C)=CCCC1(C)OC(=O)NC1(C)O (stereo unspecified)	-6	82	88	99
86	Oc1cc(O)cc(/C=C/c2ccc(O)c(O)c2)c1	-33&-58&-74	/	/	97
87	CCC(Oc1ccccc1)C(=O)Nc1cc(-c2ccccc2F)nn1-c1ccccc1 (stereo unspecified)	/	103	102	109
88	CCOC(=O)C1=C(CN2CCCCC2)NC(=O)NC1c1ccc(C)cc1 (stereo unspecified)	-23	104	88	110
89	O=S(=O)(Nc1ccc2oc3c(c2c1)CCCC3)c1cc(Cl)ccc1Cl	-42	81	81	109
90	CCOC(=O)c1noc2ncn(CC(=O)Nc3ccccc3OC)c(=O)c12	/	104	101	112
91	COc1cccc(N2C(=O)NC(=O)/C(=C\c3ccc(OC)c([N+](=O)[O-])c3)C2=O)c1	-27	/	/	103
92	Cc1nn(CC(=O)O)c(=O)c2cc3cc(F)ccc3n12	-16	101	91	101
93	Cc1ccc(-c2nnc3n2N=C(C(C)(C)C)CS3)cc1	-13	99	94	/
94	Cc1ccc(C)c2sc(NC(=O)c3ccc(S(=O)(=O)N4CCC(C)CC4)cc3)nc12	/	81	87	97
95	CCCCCn1c(=O)c2ccccc2n2c(Cn3nnc(-c4ccccc4)n3)nnc12	-23	79	85	/
96	Cc1c2cnn(C)c(=O)c2c(C)n1-c1ccccc1	-38	101	65	103
97	Cc1ccc(N(CC(=O)Nc2cccc(F)c2)S(=O)(=O)c2cccs2)cc1	-22	99	85	103
98	O=C(O)c1ccccc1CN1CCOCC1	/	77	93	103
